Screening data from PubChem BioAssay.
AID504770: growth inhibitors of E. coli YBA685 in a screen for V. cholerae RctB (chromosome II replication) inhibitors | E. coli YBA685 rctB-dependent plasmid, OD600 growth, 3 h; hits give low values | z-score (test concentration not listed) | 0.27% of 130,000 active;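 active means z-score under -2 on both plates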;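 further: wells of about 30 µL received 100 nL stock; score is relative to mean and SD of the test wells; the first replicate is given; strong numbers were not always called active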
Ba CapD inh: blocks the Bacillus anthracis CapD enzyme | purified CapD enzyme, fluorescence intensity read-out; hits give low values; some hits fall short of the stated cut | z-score (test concentration not listed) | 0.23% of 140,000 active;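 active means z-score under -4 in either of two replicates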;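 further: stock transfer was 100 nL into about 40 µL; score is relative to mean and spread of the plate; one replicate is shown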
An asterisk follows results filed as active; . = no result given. The order is random; overall some 0.37% were active at least once.

Screens in order – AID504770	Ba CapD inh
CCOC(=O)C1C(=O)NC23CCCCC2C1c1cc(OC)ccc1O3 (stereo not drawn)
 : -0.7	-0.14
COc1ccc(C)cc1NCC(=O)NC1CCCCC1
 : 0.25	.
Cn1c(C(C#N)C(=O)C2CCCCC2)nc2ccccc21 (stereo not drawn)
 : 0.3	-0.86
O=C(CCC1CCCC1)Nc1noc2ccccc12
 : -0.5	0.86
Cc1ccc(Sc2nc(-c3cccs3)ns2)cc1
 : -0.8	-0.47
Nc1cccc2c1C(=O)N(CC(=O)NC1CCCc3ccccc31)C2=O (stereo not drawn)
 : 0.8	.
O=C(CSc1ccc(F)cc1)NC1Cc2ccccc2C1
 : .	-0.16
Cc1nc(-c2ccccc2)sc1-c1nnc(-c2ccc(C(F)(F)F)cc2)o1
 : -0.6	19
CS(=O)(=O)c1ccc(CC(=O)NCc2ccccn2)cc1
 : .	-0.19
COc1ccc(NC(C)=O)cc1NC(=O)c1cncn1-c1ccc(F)cc1
 : 0.1	.
COC(=O)C1CCN(C(=O)COc2ncnc3c(Cl)cc(Cl)cc23)CC1
 : -0.4	.
Cn1c(C(=O)N(Cc2ccccc2)C(C)(C)C)cc2sccc21
 : 1.9	.
COc1ccc2oc(=O)c(C(=O)c3ccccc3)cc2c1
 : 0.15	0.68
OC(CN1CCCC1)Cn1ccc2ccccc21 (stereo not drawn)
 : 1.8	-0.44
CN1CCC(N(C)CC2=CCC3CC2C3(C)C)CC1 (stereo not drawn)
 : 0	0.28
Clc1cccc(CN2CCN(C(c3ccccc3)c3ccccc3)CC2)n1
 : .	-0.74
CCn1c(NCCSc2nc3ccccc3n2C)nc2ccccc21
 : 1.9	0.12
O=C(N1CCCC1)C1(c2ccccc2)CCOCC1
 : .	-0.19
Cc1cc(C)n(-c2nc3nonc3nc2Nc2cccc(C(F)(F)F)c2)n1
 : .	0.1
COC(=O)c1cc(S(=O)(=O)N(C)c2cccc(C)c2)cn1C
 : -0.55	-0.075
O=C(CSc1nc2ccccc2o1)c1ccccc1
 : 0.45	-0.48
CCc1ccc(NCc2cccc3c2CN(CC)C3)cc1
 : -0.15	4.8
NCC1CCN(Cc2ccccc2)C1 (stereo not drawn)
 : 0.45	.
Cc1[nH]nc2c1C(c1c(OC(=O)N3CCOCC3)ccc3ccccc13)C(C#N)=C(N)O2 (stereo not drawn)
 : .	0.46
CS(=O)(=O)N1CCN(C(=S)NCc2ccc(F)cc2)CC1
 : -1.1	-0.17
CCc1cccc(CC)c1NC(=O)C(Sc1ccccn1)c1ccccc1 (stereo not drawn)
 : .	-0.58
CSc1ccc(S(=O)(=O)NC2CCCC2)cc1
 : -0.75	-0.41
O=C(NCCN1CCCCCC1)c1cnn2c(C(F)(F)F)cc(-c3ccccc3)nc12
 : -0.45	0.19
Cc1ccc2nc(COC(=O)c3ccc(-n4cnnn4)cc3)cc(=O)n2c1
 : -0.4	.
CC(=O)N1N=C(c2ccccc2)CC1c1cn(-c2ccccc2)nc1-c1ccc(C)cc1 (stereo not drawn)
 : .	-0.035
N/C(=N\O)c1cccc(/C(N)=N/O)n1
 : -0.75	-0.41
O=C(Nc1ccc(Cl)cc1)c1ccc2ncsc2c1
 : -0.1	2.1
Cc1cc(C)n(C(=O)c2ccc(NC(=O)C3CCCCC3)cc2)n1
 : -0.25	0.15
CC(C)CC(NC(N)=O)C(=O)O (stereo not drawn)
 : -0.05	.
COC(=O)CSCCC(N)=S
 : .	-0.34
O=c1c2c(n3cnnc3n1Cc1ccccc1)-c1ccccc1CC21CCCCC1
 : .	0.72
CCOc1cc(C=C2C(=O)NC(=O)NC2=O)cc(Br)c1OCCOc1ccc(C)cc1
 : .	-0.3
CN(C)c1nc(Oc2c(Cl)cccc2Cl)cc(C(F)(F)F)n1
 : .	1.8
Cc1ccccc1NC(=O)CC1SC(=O)N(c2ccccc2)C1=O (stereo not drawn)
 : -1.6	-0.34
O=c1/c(=C/c2ccccc2)sc2nc(-c3ccccc3)nn12
 : -0.45	5.1
CCOC(=O)C1=C(C)NC(C)=C2C(=O)Oc3ccccc3C12 (stereo not drawn)
 : -0.5	.
Cc1ccc(/C(O)=C2\C(=O)C(=O)N(c3ccccn3)C2c2ccccc2Cl)cc1 (stereo not drawn)
 : .	-0.66
CCN(CC)C(=O)c1sc2ncn(CC(=O)Nc3cccc(C(F)(F)F)c3)c(=O)c2c1C
 : 0.5	-0.035
CCOC(=O)C1C2C(=O)N(N(C)c3ncc(C(F)(F)F)cc3Cl)C(=O)C12 (stereo not drawn)
 : .	-0.58
OCCCN=Cc1ccc(Cl)cc1Cl
 : 0.75	0.1
O=C(c1ccc(C(=O)N2CCCC2)cc1)N1CCCC1
 : 1.8	0.075
CC1(C)CC(=O)C(C2=NC3(CCCC3)Cc3ccccc32)=C(O)C1
 : .	-0.68
CC(=O)NC(=O)/C(C#N)=C/N1CCN(Cc2ccccc2)CC1
 : -0.3	-0.29
N#Cc1c(N)nc(SCC(=O)NCc2ccccc2)c(C#N)c1-c1cccs1
 : .	13
O=C1C(=Nc2ccc(Cl)cc2)c2ccccc2N1Cc1ccc(Cl)cc1
 : .	-0.1
O=C(NCC1COc2ccccc2O1)OCc1nc(-c2ccc(Cl)cc2)cs1 (stereo not drawn)
 : .	0.62
COc1ccc(-c2[nH]nc3c2C(c2c(F)cccc2Cl)C(C#N)=C(N)O3)cc1OC (stereo not drawn)
 : .	-0.11
Fc1ccc(Oc2ccc3c(C(F)(F)F)cc(C(F)(F)F)nc3n2)cc1
 : .	-0.26
COC1OC2COC(c3ccccc3)OC2CC1O (stereo not drawn)
 : -0.5	0.22
O=C(Nc1cccc2c1C(=O)c1ccccc1C2=O)c1ccc(S(=O)(=O)N2CCOCC2)cc1
 : .	0.52
CN(C(=O)C(O)(c1ccc(F)cc1)c1ccc(F)cc1)N(c1ccccc1)c1ccccc1
 : .	-0.76
CCOc1ccc(-n2c(-c3ccco3)nc3c(cnn3-c3ccc(Cl)cc3)c2=O)cc1
 : 1.3	0.25
CC1CCCCN1C(=O)CSc1nnc(CNc2ccc(Cl)cc2)o1 (stereo not drawn)
 : -0.05	.
CCOc1ccc(C(=O)Nc2cccc(-c3ccc4nncn4n3)c2)cc1
 : 0.55	.
CC(C)(C)C1(C)OC(=O)C(=Cc2ccc3c(c2)OCO3)C(=O)O1 (stereo not drawn)
 : 0.45	0.28

Compound profiles, from the list above.
`Fc1ccc(Oc2ccc3c(C(F)(F)F)cc(C(F)(F)F)nc3n2)cc1` is listed as AID504770: .; Ba CapD inh: -0.26
`O=C(c1ccc(C(=O)N2CCCC2)cc1)N1CCCC1` is listed as AID504770: 1.8; Ba CapD inh: 0.075
`CCOc1ccc(C(=O)Nc2cccc(-c3ccc4nncn4n3)c2)cc1` is listed as AID504770: 0.55; Ba CapD inh: .

The listing continues.
Screens in order – AID504770	Ba CapD inh
Cc1c(C#N)c(Sc2ccccc2N)nc2ccccc12
 : -0.8	-0.025
CN(C)/C=N/c1nnc(C(C)(C)C)s1
 : .	-0.08
O=C(O)/C=C/C(=O)Nc1ccnn1-c1ccccc1
 : -0.45	-1.1
O=c1oc2c(CN3CCOCC3)c(O)ccc2c2c1CCC2
 : 1.3	70
CC(C(=O)N1CCCC1)N1c2cccc3cccc(c23)S1(=O)=O (stereo not drawn)
 : 0.2	6.8
O=c1[nH]c(=O)n(-c2ccc(Br)cc2)c(O)c1/C=C1/C=Nc2ccccc21
 : .	0.075
O=C(COc1ncnc2ccccc12)NC1CCCC1
 : 0.6	.
COC(=O)CNC(=O)c1cccnc1Oc1ccc(Cl)cc1
 : -0.45	-0.45
Nc1ccc2nc(-c3ccccc3Br)sc2c1
 : -0.8	20
COc1cc(/C=N/NS(=O)(=O)c2ccc(Br)cc2)cc(OC)c1O
 : -0.25	.
CCCCOCC1CN(c2ccccc2)C(=O)CS1 (stereo not drawn)
 : 1.4	-0.36
COc1ccc(NC(=O)C2CCCO2)c(OC)c1 (stereo not drawn)
 : -1.1	0.32
COC(=O)c1cscc1OC(=O)c1ccc(C(F)(F)F)cc1
 : 0.5	-0.28
CC(C)Oc1ccc(CNC(=O)C2CCCCC2)cc1
 : 0.4	0.49
Fc1ccc(Nc2nc3ccc(F)cc3s2)cc1
 : 2.1	-2.3
CCN1C(=O)C2C3c4ccccc4C(C(=O)O)(c4ccccc43)C2C1=O (stereo not drawn)
 : .	0.71
O=C(Nc1cccc(F)c1)C1CCN(c2ncnc3c2sc2cccc(F)c23)CC1
 : -0.3	4.8
Cc1ccc(CNC(=O)c2cc3c(C)nc4ccccc4c3o2)cc1
 : -0.4	1.3
CCc1ccc(Oc2coc3cc(OC(=O)C(C)C)ccc3c2=O)cc1
 : 1.1	-0.28
COc1cc(-c2nn3c(-c4ccc(C(C)(C)C)cc4)nnc3s2)cc(OC)c1OC
 : -0.15	-1.3
O=C(Nc1nc2c(Br)cc(Br)cc2c(=O)s1)c1cccs1
 : 0.7	-1.6
CC(C)Nc1nc(N2CCCC2)nc(N2CC3CC(C2)c2cccc(=O)n2C3)n1 (stereo not drawn)
 : -1.1	8.1
CCCN1C(=O)CC(C(=O)OC)=C1C
 : -0.5	.
COc1ccc(C)cc1NC(=O)CN(C)Cc1nc2ccccc2c(=O)[nH]1
 : -0.15	.
CCOC(=O)c1oc2cc(O)c(CC)cc2c(=O)c1-c1cscn1
 : 0.3	.
COC(=O)c1ccc(Cn2nnc3ccccc32)cc1
 : .	-0.23
O=C(NCCc1nc2ccccc2[nH]1)C1COc2ccccc2O1 (stereo not drawn)
 : 0.2	0.56
COc1ccccc1-c1[nH]ncc1CNC1CCCCC1
 : -0.75	-0.4
COC(=O)CN(C)C(=O)c1cc(OC)c(OC)c(OC)c1
 : -1	0.12
COc1nsc(Br)c1C#N
 : -0.85	0.03

Next part, overlapping the part above by 5 compounds.
Screens in order – AID504770	Ba CapD inh
COC(=O)c1ccc(Cn2nnc3ccccc32)cc1
 : .	-0.23
O=C(NCCc1nc2ccccc2[nH]1)C1COc2ccccc2O1 (stereo not drawn)
 : 0.2	0.56
COc1ccccc1-c1[nH]ncc1CNC1CCCCC1
 : -0.75	-0.4
COC(=O)CN(C)C(=O)c1cc(OC)c(OC)c(OC)c1
 : -1	0.12
COc1nsc(Br)c1C#N
 : -0.85	0.03
Cc1ccccc1COC(=O)C1CCN(S(=O)(=O)c2ccc3c(c2)OCCO3)CC1
 : 0.9	.
Cc1ccc(-c2ncnn2-c2sc3c(c2C#N)CCCCC3)cc1
 : 0.4	0.24
CCOC(=O)C1CCN(C(=O)/C=C/c2c(Cl)nc3sccn23)CC1
 : -0.55	.
CCOC(=O)c1sc(N)c(C#N)c1CSC1=N/C(=C\c2ccco2)C(=O)N1c1ccc(OC(F)F)cc1
 : 2.1	.
CCCn1nnc(NC(=O)Cc2ccc(Cl)cc2)n1
 : -0.95	-0.39
O=c1cc(CSc2ncn[nH]2)nc2sccn12
 : 0.65	-1.2
NS(=O)(=O)c1ccc(NC(=O)Cn2cc(C(F)(F)F)ccc2=O)cc1
 : 0.5	.
CC(C)(C)C(=O)COC(=O)c1cc(-c2ccccc2)nc2ccccc12
 : -0.4	0.28
N#CCCSc1nnc2c(Cl)cc(Cl)cn12
 : -0.5	.
CCN(CC(=O)NCc1ccc(F)cc1)Cc1cc(=O)n2ccsc2n1
 : 0.05	.
Cc1ccc(CNC(=O)c2ccc(OCC(C)C)cc2)n1C
 : -0.65	.
C#CCOC1(c2ccccc2)OC(=O)c2ccccc21 (stereo not drawn)
 : .	-0.16
Cc1ccc(C)c(-c2csc(N)c2C#N)c1
 : 0.4	0.41
CCc1n[nH]c(=S)n1/N=C/C(C)=C\c1ccccc1
 : 0.5	-0.73
CCCS(=O)(=O)N1CCC(C(=O)NCc2ccc(F)cc2)CC1
 : -1.1	-0.055
O=C(c1cc2c(=O)[nH]c3ccccc3c2s1)N1CCCC1
 : 0.1	-0.11
O=C1CC(c2ccc3ccccc3c2)c2ccc3ccccc3c2N1 (stereo not drawn)
 : .	4.3
Brc1snnc1-c1ccccc1
 : -0.55	-0.71
CCn1c(C(=O)N2CCCC(C(=O)NC3CCCC(C)C3C)C2)cc2sccc21 (stereo not drawn)
 : -0.2	-0.33
COc1ccc(Cl)cc1NC(=O)CN(C(=O)c1ccccc1)C1CCCCC1
 : -0.2	0.62
CCOC(=O)C(C(=O)c1ccccc1)C1(O)C(=O)c2ccccc2C1=O (stereo not drawn)
 : -0.5	.
Cc1nc2cc(C(=O)O)ccc2n1-c1ccccc1
 : 0.4	0.58
COC(=O)Cc1cnc(NC(=O)CSc2nc(C(C)C)cc(=O)[nH]2)s1
 : -0.9	.
CCOCC(=O)Nc1cc(C)cc(C)c1
 : -0.35	-0.17
COC(=O)c1ccc(NC(=O)CCc2ccccc2)cc1
 : 0	0.96
CN1CCN(Cc2c(O)ccc3cc(-c4nc5ccccc5n4C)c(=O)oc23)CC1
 : -0.5	14
Cc1nnc(NC(=O)CSc2nc3c(c(=O)n2-c2ccc(F)cc2)SCC3)s1
 : .	-1.1
O=C(Nc1ccc(N2CCOCC2)cc1)c1oc2ccccc2c1CSc1ncn[nH]1
 : -1.1	.
COc1cc(C2C(C(=O)OC(C)C)=C(C)NC3=C2C(=O)CC(c2cccs2)C3)cc([N+](=O)[O-])c1O (stereo not drawn)
 : .	-1.2
CCCS(=O)(=O)c1c(S(=O)(=O)CCC)c2ccccn2c1C(=O)N/N=C/c1cccc(OC)c1
 : .	35
O=C(c1cc2ccccc2cc1O)N1CCCCCC1
 : -0.95	2.7
CC(C)c1csc2nc[nH]c(=O)c12
 : -0.5	-0.83
Cc1ccc(-c2cc(C(F)(F)F)n3ncc(C(=O)OC(C)C)c3n2)cc1
 : -1.4	3.6
COc1ccc2oc3nc(=O)c4ccccc4c-3cc2c1
 : -0.75	4
